AmpC inh no det: inhibitors of E. coli AmpC beta-lactamase without detergent | P00811 | 71,000 compounds, 1.8% hits | Potency, µM (series often up to 28.7 µM), without a hit: at the top dose activity change, negative = inhibition | AmpC nitrocefin hydrolysis, absorbance 480 nm, no detergent; potencies from a single point are estimates | AID 585; active = falling curve, for most hits resting on a single point; inconclusive = weak or doubtful change; inactive = flat or rising curve; also: % of control where 0% means no effect; about half of the hits show no inhibition at the top dose; a quarter of the inactives give rising signals
Target sequence (P00811 whole entry, looked up): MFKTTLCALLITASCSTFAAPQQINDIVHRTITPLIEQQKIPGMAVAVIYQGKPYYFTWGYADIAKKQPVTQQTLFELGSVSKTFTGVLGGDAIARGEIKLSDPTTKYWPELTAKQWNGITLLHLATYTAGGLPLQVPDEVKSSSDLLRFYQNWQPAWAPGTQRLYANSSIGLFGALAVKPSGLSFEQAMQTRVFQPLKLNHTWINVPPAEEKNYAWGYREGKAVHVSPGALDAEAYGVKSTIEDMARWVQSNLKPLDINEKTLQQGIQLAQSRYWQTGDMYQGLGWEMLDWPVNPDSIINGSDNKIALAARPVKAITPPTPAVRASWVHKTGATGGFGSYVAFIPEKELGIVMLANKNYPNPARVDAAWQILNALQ
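AmpC, 20 mM phosphate pH 7.0; 15 min cpd preinc, RT; start with nitrocefin (800 uM stock); A480 kinetic read, 20 s intervals, 4 min. No-enzyme wells = negative control.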
Starred values were filed as active, the others as inactive; ? = inconclusive; [ ] = another dose, or the depositor's remark. Potency is read from the fitted curve at half-maximal effect. Only part of the results is shown; the hit share may differ from the screen's.

SMILES | AmpC inh no det
O=c1c(-c2ccccc2)nc2cnc(Oc3cccc(Cl)c3)nc2n1C[C@H]1CCCO1 | 37%
Cc1ccc(C)c2[nH]c(=O)c(CN(CCN3CCCC3)C(=O)Nc3cccc(Cl)c3)cc12 | 98%
COc1cc2c(cc1OC)CN(C(=O)c1cc3ccccc3oc1=O)CC2 | 18%
Cc1cc2oc(=O)cc(CN3CCCc4ccccc43)c2cc1C | -5%
CC(=O)N[C@H](CS)C(=O)O | 8%
COc1cccc(CNC(=O)Nc2cccs2)c1 | 13µM*
Cc1cccc(C(=O)NCCN2CCN(c3ccccc3)CC2)c1 | 11%
O=C(CSc1nc2ccccc2o1)NCc1ccco1 | -6%
Cc1ccc(Cn2nnc3c(=O)n(Cc4cc(C)ccc4C)cnc32)cc1 | 1%
O=C(O)CCc1nc2cccnc2n1Cc1ccccc1 | 8%
CC1CCN(C(=O)CSc2nnc(Cc3ccccc3)o2)CC1 | 26%
OC1CN=C2C=CC=CN2C1 (stereo unspecified) | -15%
COc1ccc(NC(=O)N2CC3(CCN(C(=O)c4cnccn4)CC3)C2)cc1 | 8%
CC1=C(C(=O)NC2CCCCC2C)C2(CCC(C)CC2)OC1=O (stereo unspecified) | 24%
COC(=O)c1ccc(C(/C=C/[C@@H](C)C(=O)NCCc2c[nH]c3ccccc23)NC(=O)OCc2ccccc2)cc1 (stereo partly specified) | -11%

Some of the entries so far, as tab-separated lines:
Compound	AmpC inh no det
Cc1cc2oc(=O)cc(CN3CCCc4ccccc43)c2cc1C	-5%
COc1ccc(NC(=O)N2CC3(CCN(C(=O)c4cnccn4)CC3)C2)cc1	8%
Cc1cccc(C(=O)NCCN2CCN(c3ccccc3)CC2)c1	11%
Cc1ccc(Cn2nnc3c(=O)n(Cc4cc(C)ccc4C)cnc32)cc1	1%
O=C(O)CCc1nc2cccnc2n1Cc1ccccc1	8%
COc1cc2c(cc1OC)CN(C(=O)c1cc3ccccc3oc1=O)CC2	18%

Further records follow:
SMILES | AmpC inh no det
COC(=O)CNC(=O)c1c(-c2c(Cl)cccc2Cl)noc1C | 3%
COC(=O)c1ccc(C(NC(=O)OCc2ccccc2)/C(F)=C/[C@@H](C)C(=O)NCCN2CCOCC2)cc1 (stereo partly specified) | 121%
NC(=O)c1oc2ccccc2c1NC(=O)C1CCCCC1 | 1%
N#C[C@H](C(=O)O)C(c1c(Cl)cccc1Cl)[C@H](C#N)C(=O)O | -3%[5.75 µM]
COC(=O)CCSCc1cn2cc(Cl)ccc2n1 | -5%
O=C(C1COc2ccccc2O1)N1CCN(c2ccccc2)CC1 (stereo unspecified) | 21%
COc1ccc(C(=O)Nc2cccc(-c3nc4ncccc4o3)c2C)cc1OC | 28%
O=C1C2CCN(CC2)C1Cc1ccc(OCCOc2ccccc2)cc1 (stereo unspecified) | 67%
CC1CN(C(=O)C2CCCCC2)C(C)CN1C(=O)C1CCCCC1 (stereo unspecified) | 41%
COc1ccc(-c2cc(C(F)(F)F)nc(N3CCCCC3)n2)cc1OC | 36%
O=C(CSc1n[nH]c(-c2ccncc2)n1)NC1CCS(=O)(=O)C1 (stereo unspecified) | -3%
CC[C@@H]1O[C@]2(C=C[C@@H]1C)C[C@H]1C[C@H](CC=C(C)[C@@H](O[C@@H]3C[C@H](OC)[C@H](O[C@@H]4C[C@H](OC)[C@H](O)[C@H](C)O4)[C@H](C)O3)[C@@H](C)C=CC=C3CO[C@@H]4[C@@H](O)C(C)=C[C@@H](C(=O)O1)[C@]34O)O2 | 117%[12.8 µM]
CCOC(=O)CSc1nnc(-c2ccc(NS(=O)(=O)c3ccc(C)cc3)cc2)o1 | -10%
O=c1cc(N2CCN(Cc3ccccc3)CC2)[nH]c(=O)n1Cc1ccc(F)cc1 | -6%
CCCCOCCCNC(=O)CN1C(=O)c2ccccc2C1=O | 22%
CC(=O)Nc1ccc(NC(=O)C2CCCN(c3nnc(-n4cccc4)s3)C2)cc1 (stereo unspecified) | -2%
COc1ccc(NC(=O)N2CCCC3(CCN(S(C)(=O)=O)CC3)C2)cc1 | 1%
COc1ccc(N2C(=O)CSC2c2ccncc2)cc1 (stereo unspecified) | -3%
OC[C@@H]1O[C@@H](O)[C@H](N=Cc2ccc3c(c2)OCO3)[C@@H](O)[C@@H]1O | 9%[5.75 µM]
COc1ccc(CCNC(=O)c2nc3ncccn3n2)cc1OC | -4%
Cc1nn(C)c(C)c1S(=O)(=O)N1CCC(C(=O)NCC2COc3ccccc3O2)CC1 (stereo unspecified) | 100%
CC(=O)c1c(C)[nH]c(C(=O)Nc2cccnc2)c1C | -3%
COCCn1nnnc1C(c1ccc(OC)cc1)N1CCN(c2ccccc2F)CC1 (stereo unspecified) | 95%
CCc1c(C)c2ccc(OCC(=O)N(C)C)c(C)c2oc1=O | 38%
CC1CN=C(NC2CCCCC2C)S1 (stereo unspecified) | -16%
CCOC(=O)c1[nH]c2cc(OC)c(OC)cc2c1NC(=O)CN(C)C1CCCCC1 | 96%
CC(C)CC(c1nnnn1CC1CCCO1)N1CCN(c2nc3ccccc3s2)CC1 (stereo unspecified) | 104%
O=C(NCCc1ccccn1)c1ccc(COc2ccccc2)o1 | 31%
CC1(C)CC(=NO)CC(C)(C)N1 | -2%
Cc1cccc(C)c1NC(=O)CSc1nnc([C@@H]2CCCN2C(=O)OC(C)(C)C)o1 | 20%

5 compounds out of the list, arranged by formula weight, ascending:
SMILES | AmpC inh no det
CCc1c(C)c2ccc(OCC(=O)N(C)C)c(C)c2oc1=O | 38%
OC[C@@H]1O[C@@H](O)[C@H](N=Cc2ccc3c(c2)OCO3)[C@@H](O)[C@@H]1O | 9%[5.75 µM]
O=C(NCCc1ccccn1)c1ccc(COc2ccccc2)o1 | 31%
CCOC(=O)c1[nH]c2cc(OC)c(OC)cc2c1NC(=O)CN(C)C1CCCCC1 | 96%
CC(C)CC(c1nnnn1CC1CCCO1)N1CCN(c2nc3ccccc3s2)CC1 (stereo unspecified) | 104%

Following part:
SMILES | AmpC inh no det
FC(F)(F)c1ccccc1-c1cncnc1Nc1ccccc1 | 10%
CCCCOC(=O)C1=C(C)NC2=C(C(=O)CCC2)C1c1cc(OC)ccc1OC (stereo unspecified) | 64%
O=C(Cn1cnc2c(cnn2-c2ccccc2)c1=O)N1CCN(c2ccc(F)cc2)CC1 | ?
CCc1nnc(NC(=O)COC(=O)CN2C(=O)c3ccccc3C2=O)s1 | 2%
CC1CCc2nn(CC(=O)NCCCN3CCCCC3)cc2C1 (stereo unspecified) | 6%
CS(=O)(=O)N(CCc1ccccc1)CC(=O)NCc1ccco1 | 5%
CCCN1CC=C2C(C#N)=C(N)C(C#N)(C#N)C(c3cccc(OC)c3OC)C2C1 (stereo unspecified) | 27%
N=c1c(S(=O)(=O)c2ccccc2)cc2c(=O)n3ccccc3nc2n1CCN1CCOCC1 | 15%
CC(C)COC(=O)N1CC(O)CC1C(=O)O (stereo unspecified) | -8%
O=C(CCn1c(=O)sc2ccccc21)NC1=NCCS1 | -8%
O=C(Nc1ccc2c(c1)OCO2)[C@@H]1[C@@H]2C(=O)N(C3CCCCC3)C(=O)[C@@H]2C2c3ccccc3C=CN21 (stereo partly specified) | 6%
CC(=O)N1C2(C=CC1(C)C(=O)NCCN1CCOCC1)CCCCC2 (stereo unspecified) | 54%
N#Cc1c(NC(NC(=O)c2ccco2)C(=O)c2ccccc2)sc2c1CCCC2 (stereo unspecified) | -8%
CCc1ccccc1NC(=O)Cn1nnc(-c2cccs2)n1 | -17%
C=CCn1c(SCC(=O)Nc2ccc(C)cc2C)nnc1-c1cccnc1 | 20%
COc1ccc(N2CCN(C(=O)CCNS(=O)(=O)c3ccc4c(c3)CCC(=O)N4)CC2)cc1 | 18%
O=c1c(CCc2ccccc2)nc2cnc(N3CCNCC3)nc2n1-c1ccccc1 | 32%
CCn1c(C(=O)N2CCCC(C(=O)NCCc3ccc(C)cc3)C2)cc2sccc21 (stereo unspecified) | 138%
COc1ccc(C(C)N2CC34C=CC(O3)C(C(=O)O)C4C2=O)cc1 (stereo unspecified) | -7%
COCC(=O)NC1CCN(S(=O)(=O)c2ccc(C(=O)O)cc2)CC1 | 0%
CC(=O)OCC(=O)[C@@H]1CC[C@H]2[C@H]3CC[C@H]4C[C@@H](O)CC[C@]4(C)[C@@H]3C(=O)C[C@@]12C | 67%[12.8 µM]
COc1ccc(CCNc2nc(-c3sc(N)nc3C)cs2)cc1OC | 103%
O=C(CN(CCc1ccccc1)C(=O)CNS(=O)(=O)c1ccc(F)cc1)NCc1ccco1 | 15%
N#CCCN1CCN(C(=S)c2ccc(-c3cc(Cl)ccc3Cl)o2)CC1 | 100%
CCN(CC)C(=O)Sc1cccc2cccnc12 | 0%
CC1CCN(CC(O)COC2CCC(C(C)(C)C)CC2)CC1 (stereo unspecified) | 9%
O=C(NCC1CCCO1)c1ccc(NC(=O)C2CCCCC2C(=O)O)cc1 (stereo unspecified) | -2%
CN(C)c1ccc(C(=C2C=CC(=[N+](C)C)C=C2)c2ccc(N(C)C)cc2)cc1 | 69%
CCOC(=O)c1cc(-c2nnc(-c3ccc(Cl)cc3)o2)c(C)nc1C | -10%
COc1cc(C(=O)Nc2cccc(-c3nc4ncccc4o3)c2C)cc(OC)c1OC | -7%

Already shown: an excerpt of the list.
SMILES | AmpC inh no det
CCOC(=O)c1cc(-c2nnc(-c3ccc(Cl)cc3)o2)c(C)nc1C | -10%
COc1cc(C(=O)Nc2cccc(-c3nc4ncccc4o3)c2C)cc(OC)c1OC | -7%

The listing continues:
SMILES | AmpC inh no det
CCOC(=O)c1cc2c(n(-c3ccc(C)cc3)c1=O)CCCC2=O | -2%
Cc1cc(C(=O)CN2C(=O)c3ccccc3C2=O)c(C)n1Cc1cccs1 | -17%
CC(C)C(NC(=O)OCc1ccccc1)C(=O)OCC(=O)N1CCCCC1 (stereo unspecified) | 45%
Cc1cc(C)cc(N(CCC#N)C(=O)CSc2nc3nc(C)cc(C)n3n2)c1 | 71%
Cc1ccc(N=C2SCCCN2C(=O)c2ccco2)cc1Cl | 74%
O=C(NCc1ccco1)c1cccnc1-c1nc2ccccc2s1 | 25%
Cc1cccc(NC(=O)CSc2nnc(-c3ccccc3)n2N)c1C | -1%
FC(F)Oc1ccccc1C1CC(c2ccc(Br)s2)Nc2ncnn21 (stereo unspecified) | 67%
CC1CCN(C(=O)Cn2nc(C(F)(F)F)c3c2CCCC3)CC1 | 19%
COc1ccc(C)c2sc(N3CCCC3)nc12 | 110%
CCCS(=O)(=O)Nc1cc(C(F)(F)F)ccc1OCCOC | 23%
CCSc1nnc(NC(=O)CCc2ccccc2)s1 | -5%
CC1CN(c2ccc(Oc3ccccc3)cc2)c2nc3c(c(=O)[nH]c(=O)n3C)n2C1 (stereo unspecified) | 69%
Cc1ccc(C)n1-n1cnc2scc(-c3cccs3)c2c1=O | -3%
COc1ccccc1CN1CC[C@@]2(CCCN(C(=O)c3cc(C(F)(F)F)cc(C(F)(F)F)c3)C2)C1 | 67%
CCN(Cc1ccccc1)C(=O)CCc1nc(-c2ccc(C)cc2)no1 | 84%
CCCCCC1=C2CNC(Cc3ccccc3)(C(=O)OC)C=C2C(C)C1=O (stereo unspecified) | 66%
C=C1C(C(=O)N2CCN(C)CC2)C1C(=O)N1CCN(C)CC1 (stereo unspecified) | -8%
O=S(=O)(NC1CCCC1)c1ccc(S(=O)(=O)NC2CCCC2)cc1 | -16%
COc1ccc(CCn2c(O)c(C=NCCCN(C)C)c(=O)[nH]c2=O)cc1OC | -12%
CC(=O)NCCCc1c[nH]c2ccc(Cl)cc12 | 17%
Cc1ccc(C(=O)Nc2ccc(Cl)cn2)cc1S(=O)(=O)N1CCOCC1 | 54%
CCOC(=O)Cc1csc(SCc2nc3ccccc3c(=O)[nH]2)n1 | 5%
CCCCCC[N+](=O)[O-] | -4%
CCOc1cc(C#N)c(NC(=O)c2cccnc2)cc1OCC | -6%
Cc1ccc(C)o1 | -6%
CCOC(=O)C(C)Oc1cccc2c(=O)n(CC(=O)N3CCc4ccccc43)ccc12 (stereo unspecified) | 58%
O=C(NC1(C(=O)NC2CCCC2)CCCCC1)c1ccc2c(c1)OCO2 | 0%
O=C(c1ccco1)N1CCC2(CCCN(c3ccccn3)C2)CC1 | 42%
Cc1cccc(OCC(=O)Nc2cccc(O)c2)c1 | -16%
COCCN1Cc2cccc(C(=O)Nc3cc(OC)ccc3OC)c2C1=O | 22%
CC(C)CC(c1nnnn1C1CCCCC1)N1CCN(c2ncccn2)CC1 (stereo unspecified) | 106%
O=C(Cn1c(C(F)(F)F)nc2ccccc21)NCCN1CCCC1 | 1%
Cc1cc(NC(=O)CSc2nc3c([nH]c4ccccc43)c(=O)n2-c2cccc(C(F)(F)F)c2)no1 | 0%
COc1ccc(S(=O)(=O)N[C@H](C(=O)N2CC[C@@]3(O)CCCC[C@H]3C2)c2ccccc2)cc1 | 51%
COc1ccc(-c2c(C)nn3c(N4CCN(Cc5ccccc5)CC4)cc(C)nc23)cc1OC | 27%
Fc1ccc(NCc2nnc(SCc3nnc(-c4ccccc4)o3)n2Cc2ccccc2)cc1 | 55%
CCOC(=O)C1=C(N)OC2=C(C(=O)CCC2)C1c1ccccc1OCC (stereo unspecified) | 7%
CC(=O)Nc1ccc(S(=O)(=O)Nc2ccc(NC(=O)c3ccco3)cc2)cc1 | -11%
CC(CC(=O)NCc1ccccc1)C1CCCO1 (stereo unspecified) | 10%
CCC1(c2ccccc2)NC(=O)N(CC(=O)Nc2ccc3c(c2)OCO3)C1=O (stereo unspecified) | -3%
Cc1nc(NC2=NCN(Cc3ccc4c(c3)OCO4)CN2)nc2ccccc12 | -8%
CCCCC/C=C\C/C=C\CCCCCCCC(=O)O | -7%
COc1ccc(N2CCN(C(=O)CSc3nnc(CNc4ccccc4)o3)CC2)cc1 | 68%
O=C(c1ccc(S(=O)(=O)N2CCCCC2)cc1)N1CCN(Cc2ccc3c(c2)OCO3)CC1 | 140%
